Source: PubChem BioAssay
Bead autofluor: counter-screen for toxin protease inhibitors: compound fluorescence. compound autofluorescence counterscreen, microsphere flow cytometry; hits give high values. fluorescence intensity (test concentration not listed). 3.1% of 360,000 active. AID 624483;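 active means at least 3 SD above the mean of all compounds, about 16000 in these data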;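 further: 100 nL of 1 mM stock went into each well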
PrP 5UTR inh: inhibition of PrP 5' UTR reporter expression; cell-based PrP 5' UTR mRNA reporter, plate reader; 0.35% of 340,000 active; inhibition, % (concentration not given with the values);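 active means every replicate at 50% or more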;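 further: 0 = median of the neutral control wells; tested in H4 reporter cells; numbers are from one replicate; inactives centre near -14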
Mtb hypoxia rep: Mtb hypoxia fluorescent reporter inhibition | M. tuberculosis hypoxia-regulated fluorescent reporter, fluorescence | fluorescence inhibition, % (test concentration not listed) | 0.1% of 300,000 active;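 active means 35 to 45% if threefold the growth effect, above 45% if 1.5-fold the growth effect; inactive means the rest, general growth blockers included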;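 further: wells of about 50 µL received 100 nL stock; 0% = vehicle wells and 100% = reference inhibitor wells; whole bacteria with a GFP reporter of the hypoxia response; strong numbers were not always called active; many hits fall short of the cut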
ugtP null kill: kills S. aureus RN4220 lacking UgtP; S. aureus RN4220 ugtP deletion, OD600 growth, 16 h; some inactives read as strong as hits; growth inhibition, % (concentration not given with the values); 0.54% of 330,000 active;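 active means z-score under -3 and OD600 up to 0.15 on both plates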;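 further: plate controls were untreated wells for no effect and antibiotic for full effect; wells of about 80 µL received 100 nL stock; the first replicate is given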
Sa RN4220 lethal: kills Staphylococcus aureus RN4220 | inhibition, % (concentration not given with the values) | AID 1259311 | S. aureus RN4220 growth, OD600, 16 h | 0.33% of 330,000 active;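 active means z-score of -3 or lower and OD600 up to 0.18 on both plates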;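 further: plate controls were untreated cells for no effect and reference antibiotic for full effect; stock transfer was 100 nL into about 80 µL; one replicate is shown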
BJeLR viability: kills HRASV12-expressing BJeLR cells | BJeLR (HRASV12) viability, CellTiter-Glo ATP luminescence, 48 h; reference of the scale not given here | AID 1554 | 0.17% of 300,000 active | inhibition, % (no concentration beside the values);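 active means replicate mean above 50%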;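 further: 50 nL library stock added to about 25 µL; numbers are from one replicate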
Mtb hypoxia rep growth: second read-out of Mtb hypoxia rep, no call of its own (marks repeat the call); growth inhibition, %; measured here: M. tuberculosis growth (absorbance);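 0% = vehicle and 100% = reference antibiotic; read after six days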
Numbers without * were called inactive; x = no result given; & = joins results of further samples.

Second line of a record: Bead autofluor	PrP 5UTR inh	Mtb hypoxia rep	Mtb hypoxia rep growth	ugtP null kill	Sa RN4220 lethal	BJeLR viability
CC(C)(CNC(=O)c1cc(-c2ccc(Cl)s2)nc2ccccc12)N1CCOCC1
    6489	-21	9	2	2	2.1	3
COc1ccc(N(C)C(=O)c2cn(CC(C)C)c(=O)c3cc(OC)c(OC)cc23)cc1
    3775	-26	-4	-3	9	-1.2	-9
COc1ccc(Nc2ncnc3ccc([N+](=O)[O-])cc23)c(OC)c1
    4360	-15	16	14	2	8.1	2
CCOC(=O)CSc1nc2cc(C(=O)NCc3ccco3)ccc2c(=O)n1C1CCCCC1
    16581*	-12	0	-2	-4	3.3	0
C[N+]1(C)[C@@H]2CC[C@H]1CC(OC(=O)C(c1ccccc1)c1ccccc1)C2 (some centres undefined)
    3824	-7	8	9	5	0.4	7
CCN(CC)S(=O)(=O)c1ccc(C(=O)Nc2ccc(OCC(=O)N3CCOCC3)cc2)cc1
    3015	-18	-1	15	-11	-0.6	5
CS(=O)(=O)c1ccc(Cl)c(NC(=O)c2cccc(-n3cnnn3)c2)c1
    6233	-2	10	-8	5	-0.5	2
CCN1CCCC1CNC(=O)c1ccc2c(c1)N(Cc1cccc(Cl)c1)C(=O)c1ccccc1S2(=O)=O (centres undefined)
    5976	-19	5	1	1	-4.1	-7
O=C(O)c1ccc2c(=O)n3c(nc2c1)/C(=C/c1ccc(F)cc1)CC3
    3316	3	-5	-3	19	6.2	-9
Cc1cc(NC(=O)CSc2nnc3c(C)cc4ccccc4n23)no1
    9323	-33	1	3	11	1.7	6
COC(=O)c1ccc(OCC(O)CN2C(=O)c3ccccc3S2(=O)=O)cc1 (centres undefined)
    4487	5	8	3	-2	2.1	-4
O=C(COC(=O)/C=C/c1cccs1)NC(c1ccccc1)c1ccccc1
    8743	-12	0	-3	3	5.4	1
Cc1cc(C)cc(OCC(=O)NNC(=O)c2cc(C)[nH]n2)c1
    2437	1	0	3	-8	-12	-3
COc1ccc(S(=O)(=O)NC(C)C(=O)NCc2cccnc2)cc1Cl (centres undefined)
    3432	-25	8	4	2	1.9	12
COc1ccc(C(=O)COC(=O)c2cc(C)no2)c(OC)c1
    2944	-18	9	5	-2	5.1	x
Nc1cc(-c2cccc(F)c2)nn1S(=O)(=O)c1cccc2nsnc12
    5771	-11	4	0	5	2.6	-1
Cc1cccc(NC(=O)C2CCN(C(=O)c3ccccc3C)CC2)n1
    4132	-15	9	4	12	6.3	x
CCOc1ccc(OCCSc2nc3ccccc3n2CC(=O)O)cc1
    3535	-13	5	0	7	3.8	-3
CC1=C(C(=O)OCC(C)C)C2(O)C(=O)c3ccccc3C2(O)N1 (centres undefined)
    2414	-18	1	3	5	1.1	3
C[N+]1(C)C2CCC1CC(OC(=O)c1ccccc1)C2 (centres undefined)
    4359	-18	11	4	2	0.1	-10
Cc1cc(NC(=O)c2ccc([N+](=O)[O-])cc2Cl)ccc1NC(=O)c1ccco1
    8015	-44	2	6	2	4.9	4
CC(C(=O)Nc1cc(C(F)(F)F)ccc1N1CCOCC1)N1C(=O)C2CC=CCC2C1=O (centres undefined)
    3655	-5	x	x	5	10.0	-1
Cc1ccccc1NC(=O)CSc1ccncc1
    6047	-27	-2	8	2	1.7	7
c1ccc(CCC2CCCCN2Cc2nc(C3CC3)no2)cc1 (centres undefined)
    2031	-18	19	8	11	3.2	-3
CC(C)CC1Nc2ncnc(N3CCN(c4ccccn4)CC3)c2N(Cc2ccc(Cl)cc2)C1=O (centres undefined)
    3390&4465	-8	-1	3	-16	-12	x
O=C(O)CC1=C(c2ccc(F)cc2)CCC1=O
    2889	-18	9	-1	4	5.3	-2
COc1ccc2nc(SCC(=O)N3CCNC3=O)[nH]c2c1
    12594	-35	-20	-1	-9	-5.6	-5
CCCCn1nc(C(=O)Oc2ccc3c(C)cc(=O)oc3c2)c2ccccc2c1=O
    2536	-70	6	12	4	0.0	12
C=CCN1CCc2cc(O)c(O)cc2C(c2ccccc2)C1 (centres undefined)
    5980	-1	8	-5	-5	5.4	x
Cc1cccc(NC(=O)c2ccc(Cl)c(S(=O)(=O)N3CCc4ccccc43)c2)n1
    3501	-21	-12	-2	-20	-2.9	x
CCOC(=O)Nc1ccc2c(c1)Sc1ccccc1N2C(=O)CCN1CCOCC1
    2552	-16	x	x	0	2.8	-2
Cc1ccc(S(=O)(=O)N2CCCCC2)cc1NC(=O)CSc1ncccn1
    x	-5	-7	-5	0	2.7	x
OCC1OC(n2cnc3cc(Cl)c(Cl)cc32)C(O)C1O (centres undefined)
    6392	x	5	2	-3	11	x
CCN(CC)C(=O)c1ccc(CS(=O)(=O)c2ccc(Br)cc2)cc1
    4217	-8	5	2	12	5.6	-13
COC(=O)c1sc(NC(=S)NC(=O)c2cc(OC)c(OC)c(OC)c2)nc1C
    3299	-9	7	-1	3	2.3	0
Cc1cc(C)c(C(=O)Cn2nc(C(=O)O)c3ccccc3c2=O)cc1C
    2688	-20	2	4	5	1.5	-2
COc1ccc(OCC(=O)Nc2ccc(S(=O)(=O)N3CCCCCC3)cc2)cc1
    4818	-5	x	x	8	-5.5	-8
CCCOc1ccc(C2NC(=S)NC(c3ccccc3)=C2C(=O)Nc2ccc(C)cc2)cc1OC (centres undefined)
    2064	-17	-4	-2	-6	-1.3	-18
Cc1nnc(SCCn2c(N3CCC(C)CC3)nc3c2c(=O)[nH]c(=O)n3C)s1
    16118	0	4	7	1	-0.3	6
O=[N+]([O-])c1ccccc1/C=C/c1ccc2ccccc2n1
    3919	-52	x	x	x	x	-3
CCOP(=O)(OCC)C(=NOC(=O)c1ccc(OC)cc1)C(N)=O
    x	x	1	-5	-2	-4.0	x
Cc1ccc(N2C(=O)CC(Nc3cccc4ccccc34)C2=O)cc1 (centres undefined)
    3720	-23	-2	-8	1	-0.6	2
Cc1cc(C(=O)NC2CCCCC2)c(C)n1-c1ccc(F)cc1
    7540	-89	10	-1	-11	0.3	-1
Cc1c(C(=O)OCC(=O)N(C)Cc2ccccc2)oc2ccccc12
    3043	3	6	-7	2	1.7	x
COc1ccccc1/C=C\C(=O)NCC(=O)N/N=C/c1ccc(O)cc1O
    4162	-2	x	x	x	x	-6
Cc1cc(O)c(N=Cc2cc3c(cc2[N+](=O)[O-])OCO3)cc1C
    5097	-14	0	-1	8	6.4	-12
O=S(=O)(c1ccc2c(c1)OCCO2)C1CCC(S(=O)(=O)c2c(F)cccc2F)CC1 (centres undefined)
    3766	-12	9	17	5	3.6	x
Cc1ccc(S(=O)(=O)CCNC(=O)Cc2ccccc2)cc1
    2481	-13	-10	-3	2	0.9	0
COc1ccc(CNC(=O)CC2C(=O)NCCN2CC(C)(C)C)c(OC)c1 (centres undefined)
    2623	1	-13	4	5	2.1	0
CC(=O)Nc1ccc(S(=O)(=O)N2CCC(C(=O)c3ccc(F)cc3)CC2)cc1
    5655	-5	2	8	3	0.0	0
COC(=O)NNC(=S)Nc1ccc(Br)cc1
    4382	12	-2	-12	6	4.5	-3
COc1ccccc1CC(=O)Nc1ccc(-c2noc(COc3ccc(Cl)c(C)c3)n2)cc1
    21393*	-10	2	14	-9	-0.9	1
CC1=CCCC2C(C=C(C)CC1)OC(=O)C2CN1CCCCC1 (centres undefined)
    x	x	4	-4	5	-0.5	x
c1ccc2c(c1)sc1nnnn12
    3885	-26	6	12	0	5.4	-1
Nc1n[nH]c2cccc(Cl)c12
    4825	-24	7	2	7	1.9	-2
COc1ccc(C)cc1NS(=O)(=O)c1cn(C)nc1C
    4267	-28	2	0	-1	2.5	-7
COCc1cc(=O)[nH]c(N2CCN(c3ccccc3OC)CC2)n1
    4297	-7	13	7	3	2.0	1
O=C(CCS(=O)(=O)c1ccccc1)NC1CCCC1
    5842	-16	7	18	2	1.6	-4
Cc1ccccc1NC(=S)N(CCc1c(C)[nH]c2ccc(F)cc12)Cc1cccnc1
    4692	-19	4	1	-6	1.5	7
Cc1cccc(S(=O)(=O)NCCC(=O)OC(C)C(=O)NC(=O)NC2CCCCC2)c1 (centres undefined)
    5705	-36	x	x	0	0.9	4

No new results follow: an excerpt of the list.
Second line of a record: Bead autofluor	PrP 5UTR inh	Mtb hypoxia rep	Mtb hypoxia rep growth	ugtP null kill	Sa RN4220 lethal	BJeLR viability
CC(=O)Nc1ccc(S(=O)(=O)N2CCC(C(=O)c3ccc(F)cc3)CC2)cc1
    5655	-5	2	8	3	0.0	0
COC(=O)NNC(=S)Nc1ccc(Br)cc1
    4382	12	-2	-12	6	4.5	-3
COc1ccccc1CC(=O)Nc1ccc(-c2noc(COc3ccc(Cl)c(C)c3)n2)cc1
    21393*	-10	2	14	-9	-0.9	1
CC1=CCCC2C(C=C(C)CC1)OC(=O)C2CN1CCCCC1 (centres undefined)
    x	x	4	-4	5	-0.5	x
c1ccc2c(c1)sc1nnnn12
    3885	-26	6	12	0	5.4	-1
Nc1n[nH]c2cccc(Cl)c12
    4825	-24	7	2	7	1.9	-2
COc1ccc(C)cc1NS(=O)(=O)c1cn(C)nc1C
    4267	-28	2	0	-1	2.5	-7
COCc1cc(=O)[nH]c(N2CCN(c3ccccc3OC)CC2)n1
    4297	-7	13	7	3	2.0	1
O=C(CCS(=O)(=O)c1ccccc1)NC1CCCC1
    5842	-16	7	18	2	1.6	-4
Cc1ccccc1NC(=S)N(CCc1c(C)[nH]c2ccc(F)cc12)Cc1cccnc1
    4692	-19	4	1	-6	1.5	7
Cc1cccc(S(=O)(=O)NCCC(=O)OC(C)C(=O)NC(=O)NC2CCCCC2)c1 (centres undefined)
    5705	-36	x	x	0	0.9	4

(more compounds)
Second line of a record: Bead autofluor	PrP 5UTR inh	Mtb hypoxia rep	Mtb hypoxia rep growth	ugtP null kill	Sa RN4220 lethal	BJeLR viability
CC1=CC(C)(C)n2c(O)c(C3=NC(=S)NC3=O)c3cc(OC(=O)c4cccc5ccccc45)cc1c32
    2708	-2	-7	-3	-15	-23	-6
CCOC(=O)c1ccc(NC(=S)N(CCCN2CCCC(C)C2)Cc2ccco2)cc1 (centres undefined)
    9092	-44	9	9	2	-0.8	9
CC1CCCN(C(=O)Cc2cccc3ccccc23)C1 (centres undefined)
    4073	-20	22	13	10	3.1	-11
CCn1c(O)c(N=NC(=O)C2C(=O)NCC2c2ccccc2)c2ccccc21 (centres undefined)
    2613	-21	6	8	3	6.6	6
